HTT prom inh: HTT promoter inhibition | HEK293 HTT promoter firefly luciferase reporter (activity 0% = vehicle and -100% = no light), 24 h | Potency, µM (highest dose often 57.5 µM), inactives show at the highest dose activity change, negative = inhibition, actives largely listed as inhibitors | 48,000 tested, 0.93% active | AID 1508623; active = well fitted inhibition curve with a large enough effect; inconclusive = small, poorly fitted or top-dose-only effect; inactive = no such curve, though single readings can be large or run the other way; note: nearly all actives have a fitted effect of over 50% in size
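HEK293 cells carrying firefly luciferase reporters were seeded at 2,500 per well in Opti-MEM and cultured for 24 h. They were then treated with compounds at up to 57.5 uM final for 24 h at 37 degrees C before Dual-Glo luminescence readout.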
PMP22 txn prim: modulates PMP22 transcription in S16 Schwann cells; Potency, µM (highest dose often 57.5 µM), inactives show at the highest dose activity change, negative = inhibition, actives largely listed as inhibitors; AID 1508649; S16 Pmp22-F2sN Schwann cells (luciferase reporters placed in the Pmp22 gene), FLuc/NLuc coincidence luminescence, 24 h; 43,000 tested, 2% active; active = clear falling dose curves in both reporters; inconclusive = both reporters move, but less clearly or upward; inactive = either reporter flat; the % is the NLuc reporter signal; note: % is set by controls: 0 for no effect and ±100 for the full control effect; some results filed as inactive show a strong effect at the top dose
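Reporter cells (S16 Pmp22-F2sN, 500–1,000 per well) exposed to compounds for 24 h, 37C, 5% CO2; lysis with FLuc read after 10 min, then Stop&Glo and NLuc read after 10 min.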
An asterisk follows results filed as active; ? = inconclusive; . = no result given; [ ] = dose if it differs, or a comment. Potency is the fitted concentration of half-maximal effect. The list is partial; rates above refer to the full screens.

Compound,HTT prom inh,PMP22 txn prim
CCn1c(=O)cc(OCC(=O)N2CCN(c3cccc(Cl)c3)CC2)c2ccccc21,-14%,?
CC(=O)O[C@H]1C[C@@H]2CC[C@H]3[C@H]4C[C@H]([N+]5(C)CCCCC5)[C@@H](OC(C)=O)[C@@]4(C)CC[C@@H]3[C@@]2(C)C[C@H]1[N+]1(C)CCCCC1,0%,.
Clc1ccc(-n2c(Cc3ccccc3)nnc2SCc2nc(-c3cccs3)no2)cc1,?,?
Cc1ccc(CNC(=O)CSc2nc3ccsc3c(=O)n2-c2ccc(C(=O)O)cc2)cc1,-7%,4%
C#CCSc1nc2sc3c(c2c(=O)n1Cc1ccccc1)CCCC3,-23%,?
CCCCN(C)S(=O)(=O)c1ccc(NC2=NS(=O)(=O)c3ccccc32)cc1,-21%,-4%
Cc1ccc(-n2ncc3c(NCCCN4CCOCC4)ncnc32)cc1,-6%,-11%
CC(Sc1nc(=O)cc(N)n1CCc1ccccc1)C(=O)Nc1cccc(Cl)c1 (configuration not stated),21%,-64%
Cc1ccc(C)c(NC(=O)C(Cc2ccccc2)n2cccc2)c1 (configuration not stated),-19%,-15%
Cc1nc2ccc(S(=O)(=O)N(CC(=O)Nc3cccc(C)c3C)Cc3ccccc3)cc2s1,-23%,-8%
COc1ccc(-n2c(C)nc3c(cnn3-c3ccc(F)cc3)c2=O)cc1,?,-84%
COc1ccc(-c2cc(OC(=O)c3ccccc3C)c3c(C)oc(C)c3c(=O)c2)cc1,28%,10%
COc1ccccc1C(=O)Nc1nnc(S(=O)(=O)N2CCCCCC2)s1,-29%,0%
Cn1c(=O)c2cc(C(=O)NCCCN3CCN(c4cccc(Cl)c4)CC3)sc2c2ccccc21,-5%,-28%
CSc1ncc(C(=O)NCc2cccc(C)c2)c(-c2ccccc2)n1,-19%,7%
COc1cccc(C(c2c(O)cc(C)n(Cc3ccco3)c2=O)N2CCC(C)CC2)c1 (configuration not stated),0%,-7%
COc1ccc(C(=O)N2CCc3cc(OC)c(OC)cc3C2COc2ccc3c(C)cc(=O)oc3c2)c(OC)c1 (configuration not stated),-12%,?
CSCCC(NS(=O)(=O)c1ccc2c(c1)oc(=O)n2C)C(=O)N1CCN(c2ccc(C(C)=O)cc2)CC1 (configuration not stated),-5%,-30%
O=C(CCn1ccc2cc(S(=O)(=O)N3CCCC3)ccc21)NCc1cccc(Cl)c1,?,?
Cc1ccc2ncc(C(=O)Nc3ccc(OC(F)(F)F)cc3)c(=O)n2c1,-23%,-9%
CCOc1ccc2oc(=O)cc(CN3CCN(C(=O)c4ccc(OC)c(OC)c4)CC3)c2c1,-6%,-20%
CCc1ccc(NC(=O)c2cc3c(=O)n(Cc4cccnc4)ccc3nc2C)cc1,-21%,-41%
CCc1ccc(NC(=O)N2CCN(C(=O)c3nsc4ccccc34)CC2)cc1,-28%,-15%
O=C(NCCc1ccc(Cl)cc1)c1ccc(CSCc2cccc(Cl)c2)o1,-7%,-36%
COc1ccc(-c2cc(OC(=O)c3cccc(C)c3)c3c(C)oc(C)c3c(=O)c2)cc1,?,-26%
Cn1c(=O)c2sccc2n2c(CCC(=O)NCc3ccc(Cl)cc3)nnc12,-3%,-25%
COc1cccc(CN2c3ccccc3-c3nc(SCC(=O)Nc4cccc(C)c4)ncc3S2(=O)=O)c1,?,-11%
COc1ccccc1CCNC(=O)CCn1c(=O)c2cccn2c2ccc(F)cc21,-7%,?
CCOC(=O)c1c(NC(C)=O)c2c3c(sc2n1Cc1nc(-c2ccc(Cl)cc2)oc1C)CCCC3,-13%,2%
CN(Cc1ccco1)S(=O)(=O)c1nnc(NC(=O)c2ccccc2)s1,38%[activator],26%
Cc1csc2nc(COC(=O)c3ccc(NC(=O)COc4ccccc4F)cc3)cc(=O)n12,?,?
CCc1ccc2occ(CC(=O)Nc3ccc(C)c(C)c3)c2c1,-20%,?
Cc1ccc(NC(=O)C(Cc2ccccc2)NS(=O)(=O)c2ccc3c(c2)oc(=O)n3C)cc1C (configuration not stated),-16%,10%
COc1ccccc1CNC(=O)C1CCN(c2ncnc3c2nc2n3CCCCC2)CC1,-14%,?
CCN(c1ccccc1)c1nnc(NC(=O)Nc2ccc(Br)c(C)c2)s1,9%,-15%
CC(C)[C@H](CO)Nc1nc(Nc2cccc(Cl)c2)c2ncn(C(C)C)c2n1,-27%,.
O=C(Nc1nnc(S(=O)(=O)N2CCCc3ccccc32)s1)c1ccccc1Cl,-19%,9%
CCC(C)OC(=O)/C(C#N)=C\c1ccc(-c2ccccc2Cl)o1 (configuration not stated),18%,-12%
CCN(CC)c1ccc(NC(=O)C(NS(=O)(=O)c2cccs2)C(C)C)c(C)c1 (configuration not stated),-18%,?
COc1cc(C(=S)N2CCOCC2)ccc1O,-6%,.
CCC(C(=O)NCCc1ccc(OC)c(OC)c1)n1nc(C)c2sc3ccccc3c2c1=O (configuration not stated),-30%,14%
COc1ccc(-c2noc(-c3ccc(N4CCOCC4)c([N+](=O)[O-])c3)n2)cc1,-9%,2%
CCN(Cc1ccccc1)C(=O)Cn1c(=O)n(-c2ccc(F)c(Cl)c2)c(=O)c2sc3ccccc3c21,-8%,-23%
Cc1nc(C)c(-c2ccc(SCC(=O)Nc3ccc(F)c(F)c3)nn2)s1,?,-59%
CCOc1ccc(C(=O)c2cn(Cc3cccc(OC)c3)c3cc4c(cc3c2=O)OCO4)cc1,-29%,-27%
CCOC(=O)c1c(S(=O)(=O)N2CCC(C(=O)NCc3cccc(C)c3)CC2)c(C)n(C)c1C,-12%,13%
COc1ccc(OC)c(CCNC(=O)c2cnn(-c3ccccc3Cl)c2C2CCN(C(=O)OC(C)(C)C)CC2)c1,?,?
O=C(Nc1nnc(S(=O)(=O)N2CCCCCC2)s1)c1ccccc1,17%,23%

As a working copy, part of the list above:
Compound,HTT prom inh,PMP22 txn prim
COc1ccc(-c2noc(-c3ccc(N4CCOCC4)c([N+](=O)[O-])c3)n2)cc1,-9%,2%
CCN(Cc1ccccc1)C(=O)Cn1c(=O)n(-c2ccc(F)c(Cl)c2)c(=O)c2sc3ccccc3c21,-8%,-23%
Cc1nc(C)c(-c2ccc(SCC(=O)Nc3ccc(F)c(F)c3)nn2)s1,?,-59%
CCOc1ccc(C(=O)c2cn(Cc3cccc(OC)c3)c3cc4c(cc3c2=O)OCO4)cc1,-29%,-27%
CCOC(=O)c1c(S(=O)(=O)N2CCC(C(=O)NCc3cccc(C)c3)CC2)c(C)n(C)c1C,-12%,13%
COc1ccc(OC)c(CCNC(=O)c2cnn(-c3ccccc3Cl)c2C2CCN(C(=O)OC(C)(C)C)CC2)c1,?,?
O=C(Nc1nnc(S(=O)(=O)N2CCCCCC2)s1)c1ccccc1,17%,23%

(cont.)
Compound,HTT prom inh,PMP22 txn prim
Cc1cc(-c2ccc(S(=O)(=O)Nc3cccc(C(F)(F)F)c3)s2)on1,?,?
O=C(/C=C/c1ccccc1)Nc1nc2n(n1)C(c1ccc(F)cc1)C=C(c1ccccc1)N2 (configuration not stated),-41%,-9%
CN(C)c1cccc(C(=O)N2CCC(c3ccncc3)CC2)c1,?,?
COc1ccc(NC(=O)C2=C(C)Nc3nc(SC)nn3C2c2cc(OC)ccc2OC)cc1 (configuration not stated),-1%,?
COc1cccc(CNC(=O)CCC(=O)N2CC3CCCN3c3ccccc32)c1 (configuration not stated),-13%,?
CC(C)Cc1ccc(C(C)C(=O)OCc2ccccn2)cc1 (configuration not stated),-10%,.
CCCSc1nc2sc3c(c2c(=O)n1-c1ccc(C)c(Cl)c1)CCN(C(C)=O)C3,-31%,?
CCOC(CN1C(=O)[C@](CC(=O)Nc2ccc(C)cc2)(NC(=O)Nc2ccc(C)cc2)c2ccccc21)OCC,?,.
Cc1csc2nc(COC(=O)c3ccc(NC(=O)C(C)Oc4ccccc4)cc3)cc(=O)n12 (configuration not stated),?,?
Cc1ccc(C(=O)n2nc(-c3ccco3)nc2NCc2cccs2)cc1,-3%,-9%
Cc1ccc(CN2CCCn3nc(C(=O)NCc4ccc(OC(C)C)cc4)cc3C2=O)cc1,18µM*,-35%
Cc1cc(C)cc(OCC(=O)Nc2cccc3cccnc23)c1,2%,-17%
Cc1ccc(NC(=O)c2ccc(NC(=O)N3CCSc4nc(C)cc(C)c43)cc2)c(Cl)c1,-20%,-22%
CC(C)CCNC(=O)C(=O)Nc1c2c(nn1-c1ccccc1)CS(=O)(=O)C2,-4%,?
Cc1noc(-c2ccc(-c3noc(-c4ccc(F)cc4)n3)cc2)n1,-13%[11.5 µM],0%
O=C(c1cc2c(s1)-c1ccccc1OC2)N1CCN(c2ccccc2F)CC1,3%,-12%
COc1ccccc1OCCn1c(C(C)Oc2ccccc2)nc2ccccc21 (configuration not stated),?,?
CC(C)CCNC(=O)CN1C(=O)COc2ccc(S(=O)(=O)N3CCOCC3)cc21,-12%,-18%
O=c1c(=O)n(-c2ccccc2)ccn1Cc1c(F)cccc1Cl,-16%,-14%
COc1ccc(C(=O)OCc2cc(=O)n3nc(-c4cccs4)sc3n2)cc1,1%,2%
Cc1nc(N2CCOCC2)c2c(C(=O)N(C)c3ccccc3)c(C)oc2n1,-5%,-9%
CCOc1ccc(CCNC(=O)c2cn(CC)c3ccc(S(=O)(=O)N4CCCCCC4)cc3c2=O)cc1OCC,5%,?
Cc1ccc(-n2nnnc2CNC(=O)c2ccc(F)cc2)cc1C,1%,8%
Cc1oc2ncn(C)c(=O)c2c1C(=O)N(Cc1ccccc1)C(C)C,-4%,27%
CCOc1ccc(N2CC(c3nc4ccccc4n3Cc3ccccc3F)CC2=O)cc1 (configuration not stated),-35%,?
COc1ccc(S(=O)(=O)N2CCC(c3ccncc3)CC2)cc1Cl,?,-5%
Cc1oc(C)c2c(=O)cc(-c3ccc4c(c3)OCO4)cc(OC(=O)c3ccccc3Cl)c12,-17%,8%
CC(=O)c1ccc(Nc2cc(C)nc3nc(Cc4ccccc4)nn23)cc1,-4%,5%
CC(C)(C)c1ccc(OCC(=O)NC(Cc2c[nH]c3ccccc23)C(=O)O)cc1 (configuration not stated),-1%,9%
O=C(O)/C=C(\CC(=O)O)C(=O)O,12%,.
Cc1nnc(SCC(=O)NCc2ccccc2F)c2nn(-c3ccc(Cl)cc3)c(C)c12,?,?
COC1=C(OC)C(=O)C(CCCCCCCCCCO)=C(C)C1=O,?,.
COc1ccc(OC)c(CNC(=O)Cn2nc(C)c3c(C)n(-c4ccccc4)nc3c2=O)c1,?,-3%
Cc1ccc(NC(=O)C(Cc2ccccc2)NS(=O)(=O)c2ccc3c(c2)oc(=O)n3C)c(Cl)c1 (configuration not stated),-21%,7%
COc1ccc(C(=O)Nc2ccc(OCc3cc(=O)n4ccccc4n3)cc2)cc1,8%,5%
CCc1ccc(NC(=O)CN2C(=O)CSc3ccc(S(=O)(=O)N(C)C)cc32)cc1,-9%,1%
CCCN1C(C(=O)c2ccccc2)=C(OC(=O)c2ccc(OC)cc2)c2ccccc2S1(=O)=O,-7%,?
COc1ccc(C2=C(C)C(=O)N(Cc3ccc(C(=O)NCc4cccc(C)c4)cc3)S2(=O)=O)cc1,?,-7%
Cc1c(C(=O)N2CCC(C)CC2)c(S(=O)(=O)N2CCN(c3cccc(Cl)c3)CC2)c(C)n1C,-23%,-14%
COc1ccc(-n2c(SCC(=O)NCc3ccccc3)nc3n[nH]c(C)c3c2=N)cc1,-14%,?
COc1ccc(N2CCN(C3C(=O)c4ccccc4N3C(C)=O)CC2)cc1 (configuration not stated),-29%,-5%
Cc1cccc(CSc2ncc(CO)n2Cc2ccc(F)cc2)c1,-14%,-84%
Cc1c(C(N)=O)cc([N+](=O)[O-])cc1[N+](=O)[O-],-10%,.
Cc1ccc(-c2nnc(Nc3ccccc3)c3ccccc23)cc1S(=O)(=O)N1CCOCC1,-9%[11.5 µM],-13%
Cc1ccc(C(C)C)c(OCCn2cc(C(=O)c3ccco3)c3ccccc32)c1,?,?
CC(=O)c1ccc(NC(=O)c2cc(C3CC3)nc3c2c(C)nn3-c2ccc(C)cc2)cc1,-9%,12%
C=Cc1ccc(CSc2nc(-c3ccc(Cl)cc3)nc3c2Cc2c(CO)cnc(C)c2O3)cc1,-17%,-5%
COc1ccc(OCC2c3cc(OC)c(OC)cc3CCN2C(=O)c2ccc(F)cc2)cc1 (configuration not stated),?,19%
CCN(CC)C(C)CN1c2ccccc2Sc2ccccc21 (configuration not stated),14%,.

Bioassay records (PubChem)
